Lassa entry inh – blocks Lassa virus binding to or entry into cells; Lassa virus pseudotype entry inhibition, cell reporter; control for the full effect not named in the record; Potency, µM (doses to about 37.9 µM), inactives show at the highest dose activity change, negative = inhibition, actives largely listed as inhibitors; actives 1.2% (n = 300,000); AID 540256; active means well fitted inhibition curve with a large enough effect; inconclusive means small, poorly fitted or top-dose-only effect, or effect the other way; inactive means flat fitted curve, though single readings scatter; tested in HEK293 cells; further: on the % scale 0 is the no-effect control and ±100 the full control effect; nearly all actives have a fitted effect of over 50% in size; luciferase read-out
Cruzain noTriton – inhibitors of Trypanosoma cruzi cruzain without detergent. P25779. purified cruzain, Z-FR-AMC fluorescence, no detergent. Potency, µM, inactives show max response, negative = inhibition, most hits filed as inhibitors. actives 2.3% (n = 200,000);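 further: plate controls were enzyme without inhibitor for no effect and buffer without enzyme for full effect; nearly all actives have a fitted effect of over 40% in size; top concentration of the series not given in the record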
Target sequence (P25779 123-467 limits assumed): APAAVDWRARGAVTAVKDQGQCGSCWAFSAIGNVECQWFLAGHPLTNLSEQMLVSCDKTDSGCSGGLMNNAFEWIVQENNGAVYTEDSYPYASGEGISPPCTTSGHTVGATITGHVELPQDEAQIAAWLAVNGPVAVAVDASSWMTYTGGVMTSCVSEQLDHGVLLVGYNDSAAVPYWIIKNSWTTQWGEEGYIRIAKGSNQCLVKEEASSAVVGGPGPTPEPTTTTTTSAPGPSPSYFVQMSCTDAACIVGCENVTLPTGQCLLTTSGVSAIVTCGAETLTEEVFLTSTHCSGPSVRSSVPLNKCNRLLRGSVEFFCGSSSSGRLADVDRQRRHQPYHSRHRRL
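Detergent-free condition (0.00005% Triton X-100) in acetate buffer pH 5.5 with DTT. 1.5 nM enzyme and compound were pre-mixed 15 min, then 2 uM Z-FR-AMC substrate added; reaction progress from fluorescence change between first and third reads (60 s).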
Marburg entry inh – Marburg virus entry inhibition; Marburg virus pseudotyped entry inhibition, cell reporter; control for the full effect not named in the record; about a third of the inactives were read at about 46 µM; Potency, µM (top dose mostly 37.8 µM), inactives show at the top dose activity change, negative = inhibition, actives largely listed as inhibitors; actives 1.8% (n = 300,000); active = well fitted inhibition curve with a large enough effect; inconclusive = small, poorly fitted or top-dose-only effect, or effect the other way; inactive = flat fitted curve, though single readings scatter; tested in HEK293 cells; about a fifth of its hits are not listed in these tables; further: on the % scale 0 is the no-effect control and ±100 the full control effect; luciferase read-out
Cruzain inh Det – blocks cruzain activity in presence of Triton detergent | Potency, µM, inactives show max response, negative = inhibition, hits mostly inhibitors | AID 1478 | actives 0.43% (n = 200,000) | purified cruzain, Z-FR-AMC fluorescence, 0.01% Triton;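 further: plate controls were neutral wells for no effect and buffer without enzyme for full effect; nearly all actives have a fitted effect of over 40% in size; top concentration of the series not given in the record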
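15 min RT preincubation of 1.5 nM cruzain with compound, then 2 uM Z-FR-AMC added; kinetic AMC fluorescence, 60 s delta. Triton X-100 0.01%, pH 5.5.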
NS1 function inh – inhibitors of influenza NS1 protein function. actives 0.4% (n = 270,000). Potency, µM (series often up to 46.1 µM), for inactives: at the highest dose activity, positive = more growth. S. cerevisiae slowed by influenza A NS1, growth recovery by OD600. AID 2326; active means well fitted rising curve with a large enough effect; inconclusive means small, poorly fitted or top-dose-only effect; inactive means no such curve, though single readings can be large or run the other way; further: nearly all actives have a fitted effect of over 50% in size
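Read-out: OD600 growth recovery of NS1-expressing budding yeast. Cells grown overnight at 30C in -URA glucose medium, washed, resuspended and diluted 1:100 in 2% galactose assay medium, pH 6.0. Same strain lacking NS1 served as positive control.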
SARS PLP yeast – blocks SARS-CoV papain-like protease in a yeast assay | S. cerevisiae expressing SARS-CoV PLpro, growth rescue; control for the full effect not named in the record | Potency, µM (doses to about 32.9 µM), inactives show top-dose activity, positive = growth rescue | actives 0.19% (n = 330,000) | AID 485353; active means well fitted rising curve with a large enough effect; inconclusive means small, poorly fitted or top-dose-only effect; inactive means no such curve, though single readings can be large or run the other way; further: 0% is about no effect; nearly all actives have a fitted effect of over 55% in size; growth read by luminescence after 48 h
RE007 growth inh – less growth of the S. pombe RE007 Vpr strain. actives 0.21% (n = 360,000). Potency, µM (highest dose often 92.2 µM), inactives show top-dose activity change, negative = less growth. AID 651644. S. pombe RE007 Vpr strain, BacTiter-Glo ATP luminescence, 24 h; control for the full effect not named in the record; active = well fitted falling curve with a large enough effect; inconclusive = small, poorly fitted or top-dose-only effect; inactive = no such curve, though single readings can be large or run the other way;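 further: on the % scale 0 is the no-effect control and ±100 the full control effect; nearly all actives have a fitted effect of over 50% in size; the assay follows cell death caused by Vpr and the record does not say whether a fall means rescue or toxicity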
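Fission yeast RE007 carrying one integrated HIV-1 vpr copy, seeded at OD 0.01 in PMG+AL medium with 23 nL pinned compound. Grown 24 h at 30 degrees; viability read by BacTiter-Glo luminescence after 5 min.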
2A StopGo – FMDV 2A StopGo reporter, luciferase signal. human cells with a luciferase reporter of 2A StopGo recoding; control for the full effect not named in the record. Potency, µM (top dose mostly 57.9 µM), for inactives: at the top dose signal change, negative = less light. actives 1.2% (n = 410,000). AID 1159524; active = well fitted falling curve with a large enough effect; inconclusive = small, poorly fitted or top-dose-only effect; inactive = no such curve, though single readings can be large or run the other way; tested in HEK293T cells; further: on the % scale 0 is the no-effect control and ±100 the full control effect; nearly all actives have a fitted effect of over 45% in size; luciferase light after 4 h
Numbers without * were called inactive; ? = inconclusive; . = no result given; [ ] = remark or other dose. Unless noted, the call rests on the fitted dose curve; in most records, active means well fitted curve in the direction sought with a large enough effect; inconclusive means small, poorly fitted or top-dose-only effect, or another doubt; inactive means no such curve, though single readings can be large; an effect the other way counts as inactive or inconclusive. Potency means the concentration at half of the fitted maximal effect.

cpd	SMILES	Lassa entry inh	Cruzain noTriton	Marburg entry inh	Cruzain inh Det
1	O=C(Nc1ccon1)c1cc2c(s1)CCCC2	-27%	-3%	?	-3.2%
2	CCn1ncc(/C=N/NC(=O)c2ccc3c(c2)OCO3)c1C	?	-3%	?	3.3%
3	CC1=NN(c2ccc(Cl)cc2)C(=O)C1	3%	.	3%[46.1 µM]	.
4	Cc1ccc(S(=O)(=O)Nc2ccc(O)c3cccnc23)cc1	?	.	?	.
5	O=C(/C=C(\c1ccc(Cl)cc1)n1cncn1)c1ccc(Cl)cc1	?	-11%	-26%	6.4%
6	Nc1nc(SCc2ccccc2Cl)n[nH]1	3%	4%	7%	1.9%
7	Cc1cccc(NC(=O)Nc2ccc(C)cc2Br)c1	3%	?	5%	4.1%
8	CCCn1c(N)cc(=O)n(C)c1=O	4%	.	27%[46.1 µM]	.

cpd	NS1 function inh	SARS PLP yeast	RE007 growth inh	2A StopGo
1	-45%	-19%	?	-16%
2	-5%	0%	1%	39%[activator]
3	.	2%	-29%	-22%
4	12%	2%	-21%	0%
5	-2%	3%	-15%	.
6	3%	-7%	11%	9%
7	-3%	-3%	-7%	24%
8	4%	3%	-2%	-14%

(list continues)
cpd	SMILES	Lassa entry inh	Cruzain noTriton	Marburg entry inh	Cruzain inh Det
9	CCOC(=O)N(CC)c1ccc(C(O)(C(=O)OCC)C(F)(F)F)cc1 (stereo not given)	10µM*	?	-7%	-6.7%
10	COCCN(C(=O)c1ccco1)C(C(=O)NC1CCCC1)c1cccs1 (stereo not given)	3%	-10%	8%	-1.5%
11	COc1ccccc1/C=C/CN1CCNC(=O)C1CC(=O)NCCc1cnccn1 (stereo not given)	-9%	.	-1%	.
12	COc1cc(C(=O)NCc2nnc(SCC(=O)Nc3nc4ccccc4s3)o2)cc(OC)c1OC	20%	?	-4%	-0.7%
13	CC(/C=C/c1ccc2c(c1)OCO2)=N/NC(=O)c1ccncc1	.	.	.	.
14	Cc1cccc(Cn2c(CN3CCC(C(=O)NCc4cccnc4)CC3)cc3ccccc32)c1	-13%[46.1 µM]	17%	.	0.7%
15	COc1ccccc1NC(=O)c1ccc2oc(=O)c(S(=O)(=O)c3ccccc3)cc2c1	?	-7%	6%[46.1 µM]	-0.3%
16	Cc1cccc(C(C)C)c1NC(=O)C1CCCN1S(=O)(=O)c1cccc2nsnc12 (stereo not given)	-10%[46.1 µM]	-11%	-15%[46.1 µM]	0.4%

cpd	NS1 function inh	SARS PLP yeast	RE007 growth inh	2A StopGo
9	-7%	-7%	-11%	-29%
10	2%	11%	2%	8%
11	-2%	0%	-10%	4%
12	?	-2%	4%	1%
13	1%	0%	1%	-29%
14	.	.	.	?
15	.	.	.	28µM*
16	.	.	.	-18%

Going on with the list:
cpd	SMILES	Lassa entry inh	Cruzain noTriton	Marburg entry inh	Cruzain inh Det
17	C/C=C(\C)C(=O)Nc1cccc(C2=NOC3(C2)C[C@H](C(N)=O)N(C(=O)C(c2ccccc2)c2ccccc2)C3)c1 (stereo not given in full)	.	.	.	.
18	CC(C)(CNCc1ccccc1)NS(=O)(=O)c1ccc(Cl)cc1	-23%	.	?	.
19	CCOC(=O)c1sc2ncnc(NCc3ccco3)c2c1C	-10%	-5%	-3%[46.1 µM]	-15%
20	COc1ccc2ccccc2c1/C=N/NC(=O)CC1(C)OCCCO1	12%	-5%	-3%	-6.0%
21	Cc1ccc(C(=O)c2cn(Cc3cc(C)ccc3C)c3nc(C)ccc3c2=O)cc1	?	-30%	7.1µM*	-10.0%
22	N#Cc1ccc(CN2CCN(C(=O)CC(NC(=O)c3ccccc3)c3ccccc3)CC2)cc1 (stereo not given)	1%[46.1 µM]	.	-14%[46.1 µM]	.
23	O=C(O)c1ccc(-n2c(-c3cc(C4CC4)[nH]n3)n[nH]c2=S)cc1	-7%	.	18%[46.1 µM]	.
24	Cc1ccccc1N(C(=O)CS(=O)CC(=O)Nc1ccc(F)cc1)C(C)C(=O)NC(C)(C)C (stereo not given)	0%	.	4%[46.1 µM]	.

cpd	NS1 function inh	SARS PLP yeast	RE007 growth inh	2A StopGo
17	-34%	-4%	3%	-9%
18	.	-2%	-2%	-3%
19	-89%	-4%	?	?
20	-5%	-36%	-3%	-12%
21	.	.	.	-29%
22	-3%	1%	-21%	-4%
23	3%	0%	-7%	-2%
24	-5%	3%	-3%	9%

The list goes on; it opens with the 3 that closed the last part.
cpd	SMILES	Lassa entry inh	Cruzain noTriton	Marburg entry inh	Cruzain inh Det
22	N#Cc1ccc(CN2CCN(C(=O)CC(NC(=O)c3ccccc3)c3ccccc3)CC2)cc1 (stereo not given)	1%[46.1 µM]	.	-14%[46.1 µM]	.
23	O=C(O)c1ccc(-n2c(-c3cc(C4CC4)[nH]n3)n[nH]c2=S)cc1	-7%	.	18%[46.1 µM]	.
24	Cc1ccccc1N(C(=O)CS(=O)CC(=O)Nc1ccc(F)cc1)C(C)C(=O)NC(C)(C)C (stereo not given)	0%	.	4%[46.1 µM]	.
25	COc1ccc(NS(=O)(=O)c2ccc3nc(COc4ccc(Cl)c(C)c4)[nH]c3c2)cc1	-17%	-30%	?	-5.4%
26	Cc1ccc(CNC(=O)[C@@H](NC(=O)C2CCN(C(=O)[C@@H](N)CC(C)C)CC2)C(C)C)cc1	.	.	.	.
27	CCN1C(=O)C(C(=O)NC(C)c2ccccc2)C2CC1(C)Oc1ccccc12 (stereo not given)	-6%	-5%	-16%	-2.4%
28	CCCc1c(CC)c(=N)c2ccccc2n1C	-18%[14.3 µM]	4%	-12%	-2.5%
29	O=C1c2ccccc2S(=O)(=O)N1CC1CC(c2ccc(Cl)cc2)=NO1 (stereo not given)	-1%	-24%	?	-6.5%
30	Cc1c(CNC2CCCCC2)c(C(=O)O)c(C)n1Cc1ccccc1F	20%[46.1 µM]	5%	15%[46.1 µM]	-0.8%
31	CCCCCn1c(SC(C)C(C)=O)nc2c1c(=O)[nH]c(=O)n2C (stereo not given)	.	8%	.	1.3%
32	Cc1cccc(N2CC(C(=O)Nc3ccc(S(=O)(=O)N4CCOCC4)cc3)CC2=O)c1C (stereo not given)	-17%	.	20%	.

cpd	NS1 function inh	SARS PLP yeast	RE007 growth inh	2A StopGo
22	-3%	1%	-21%	-4%
23	3%	0%	-7%	-2%
24	-5%	3%	-3%	9%
25	20%	-11%	-3%	?
26	4%	-9%	15%	0%
27	-15%	9%	8%	0%
28	-1%	3%	?	?
29	8%	-26%	-21%	?
30	.	.	.	-10%
31	4%	-3%	9%	-11%
32	-4%	-2%	3%	-12%

3 compounds already listed, sorted by count of non-hydrogen atoms, highest first:
cpd	SMILES	Lassa entry inh	Cruzain noTriton	Marburg entry inh	Cruzain inh Det
32	Cc1cccc(N2CC(C(=O)Nc3ccc(S(=O)(=O)N4CCOCC4)cc3)CC2=O)c1C (stereo not given)	-17%	.	20%	.
27	CCN1C(=O)C(C(=O)NC(C)c2ccccc2)C2CC1(C)Oc1ccccc12 (stereo not given)	-6%	-5%	-16%	-2.4%
29	O=C1c2ccccc2S(=O)(=O)N1CC1CC(c2ccc(Cl)cc2)=NO1 (stereo not given)	-1%	-24%	?	-6.5%

cpd	NS1 function inh	SARS PLP yeast	RE007 growth inh	2A StopGo
32	-4%	-2%	3%	-12%
27	-15%	9%	8%	0%
29	8%	-26%	-21%	?

Other entries
cpd	SMILES	Lassa entry inh	Cruzain noTriton	Marburg entry inh	Cruzain inh Det
33	CC(=O)c1ccc(NC(=S)Nc2ccc(Br)c(Cl)c2)cc1	-10%[46.1 µM]	.	-16%[46.1 µM]	.
34	CCn1cc(C(=O)OCC(=O)N(C)C2CCS(=O)(=O)C2)c(=O)c2ccc(C)nc21 (stereo not given)	0%	-7%	17%	0.4%
35	COc1ccc(-c2nn(-c3ccccc3)cc2C2CC(c3cccs3)=NN2C(=O)CCC(=O)O)cc1 (stereo not given)	.	.	.	.
36	O=C(NCC(c1ccc(F)cc1)N1CCOCC1)c1ccc(Br)o1 (stereo not given)	-2%	4%	7%	4.0%
37	O=C(N=C1SC2CS(=O)(=O)CC2N1c1ccc(Cl)cc1Cl)C1CC1 (stereo not given)	.	.	.	.
38	Cc1ccc(NC(=O)C2=NNC(=O)CC2)cc1F	-21%	.	?	.
39	Cc1ccc(C)c(S(=O)(=O)NCCCN2CCOCC2)c1	-4%[46.1 µM]	.	8%[46.1 µM]	.
40	O=C(NCc1ccc(F)cc1)C1CCCN(C(=O)Nc2ccc(F)cc2)C1 (stereo not given)	?	.	1%[46.1 µM]	.

cpd	NS1 function inh	SARS PLP yeast	RE007 growth inh	2A StopGo
33	.	-2%	2%	-7%
34	-11%	7%	-1%	-15%
35	0%	2%	-3%	-4%
36	-5%	7%	8%	.
37	10%	6%	11%	0%
38	-3%	0%	-2%	63%[activator]
39	1%	0%	9%	?
40	-2%	1%	12%	-15%

Following part:
cpd	SMILES	Lassa entry inh	Cruzain noTriton	Marburg entry inh	Cruzain inh Det
41	CCOC(=O)C1=C(C)NC(=O)NC1/C=C/c1ccccc1OC (stereo not given)	?	.	?	.
42	CCN1CCN(C(=O)C(NS(=O)(=O)c2ccc3nc(C)sc3c2)C(C)C)CC1 (stereo not given)	.	-1%	.	-5.6%
43	COc1cccc(Cn2c(N)c(C#N)c3nc4ccccc4nc32)c1OC	-7%	3%	?	-6.4%
44	CCCCN=C1N/C(=C\c2ccco2)C(=O)N1c1ccccc1	5%	2%	-2%	-4.7%
45	Cc1ccc(S(=O)(=O)N2CCN(C(=O)CCc3nc4ccccc4c(=O)[nH]3)CC2)c(C)c1	?	.	-29%[46.1 µM]	.
46	NS(=O)(=O)OCC1CCCCC1	.	.	.	.
47	CN(CCO)C(=O)c1ccc(-c2nn(C)c(=O)c3ccccc23)cc1	0%	.	?	.
48	COc1ccc(S(=O)(=O)N2CC=C(C(=O)NC3CCCC3)CC2)cc1	.	.	.	.

cpd	NS1 function inh	SARS PLP yeast	RE007 growth inh	2A StopGo
41	-1%	1%	7%	-24%
42	3%	-2%	-3%	-6%
43	3%	3%	-23%	15%
44	15%	-6%	-4%	-9%
45	.	-2%	8%	?
46	1%	2%	-3%	-7%
47	1%	1%	-9%	-20%
48	-7%	-6%	-10%	-12%

Screening results (PubChem)
